Autofluor counter: compound fluorescence in toxin protease inhibitor counterscreen; compound autofluorescence counterscreen, microsphere flow cytometry; hits give high values; fluorescence intensity (test concentration not listed); hit rate 3.1% among 360,000;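 active = at least 3 SD above the mean of all compounds, about 16000 in these data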;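 also: 100 nL of 1 mM stock went into each well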
* = called active by the depositor. This is a subset, so the mix of outcomes need not match the whole.

SMILES | Autofluor counter
CCNC(=O)C1(C)CCN(C(=O)c2ccccc2F)C1 (stereo unspecified) | 3368
CC1(C(=O)Nc2ccc3nc[nH]c3c2)CCN1C(=O)CCc1ccccc1 (stereo unspecified) | 3429
C(=C\c1ccccc1)/CN1CCN(C(c2cccs2)c2nnnn2Cc2ccccc2)CC1 (stereo unspecified) | 6036
C#CCN(C[C@@H]1[C@@H](OC(=O)NCc2ccccc2)[C@@H](OC(=O)NCc2ccccc2)CN(C(=O)OC(C)C)N1C(=O)OC(C)C)S(=O)(=O)c1ccc(C)cc1 | 3391
C1=CC2(C=C1)OC21CCC2(C=CC3(C2)OC3C2CCCCC2)CC1 (stereo unspecified) | 3527
O=C(NCC1CC1)NC(=O)c1ccccc1F | 6019
C[C@H](CO)N1C[C@H](C)[C@@H](CN(C)Cc2cccc(C(=O)O)c2)OCc2cnnn2CCCC1=O | 2927
CC(C)C(N)c1csc(NC(=O)Nc2ccc(OC(F)(F)F)cc2)n1 (stereo unspecified) | 2831
Cc1c(C(=O)NCc2ccc(C(C)C)cc2)sc(=O)n1Cc1cccc(F)c1 | 2995
CCc1nc2c(OCc3ccccc3C)cccn2c1N(C)C(=O)C(C)C | 2881
CCC(c1nnnn1-c1c(C)cccc1C)N1CCN(CC)CC1 (stereo unspecified) | 4251
O=[N+]([O-])c1ccc(CN2CC(N3CCN(CC4CC4)CC3)CS2(=O)=O)cc1 (stereo unspecified) | 3095
CC(=O)NN=C(C)c1ccc(NC(=O)C2CC2)cc1 | 3417
CCCNC(=O)C1(C)CCN1C(=O)Cc1ccc(C(C)(C)C)cc1 (stereo unspecified) | 3669
O=C(NCCc1ccc(Cl)cc1)c1cccc(S(=O)(=O)N2CCCC2)c1 | 3883
COCC(=O)N(C)C[C@H]1Oc2ncc(Br)cc2C(=O)N([C@@H](C)CO)C[C@H]1C | 3352
COc1ccccc1Cc1c(-c2ccc(OC)c(OC)c2)nc2c(C)cc(Br)cn12 | 6273
O=C(c1[nH]c(C(F)(F)F)nc1-c1ccccc1)N1CCOCC1 | 4214
COc1ccc(CCC(=O)Nc2ccc(S(=O)(=O)NC3=NCCCCC3)cc2)cc1 | 3874
C[C@H](c1ccccc1)N1C[C@@H](COCc2ccccc2)Oc2cc(N3CCC[C@@H]3CO)ccc2S1(=O)=O | 4660

A second format for some results above:
SMILES	Autofluor counter
O=C(NCCc1ccc(Cl)cc1)c1cccc(S(=O)(=O)N2CCCC2)c1	3883
COCC(=O)N(C)C[C@H]1Oc2ncc(Br)cc2C(=O)N([C@@H](C)CO)C[C@H]1C	3352
COc1ccccc1Cc1c(-c2ccc(OC)c(OC)c2)nc2c(C)cc(Br)cn12	6273
O=C(c1[nH]c(C(F)(F)F)nc1-c1ccccc1)N1CCOCC1	4214
COc1ccc(CCC(=O)Nc2ccc(S(=O)(=O)NC3=NCCCCC3)cc2)cc1	3874
C[C@H](c1ccccc1)N1C[C@@H](COCc2ccccc2)Oc2cc(N3CCC[C@@H]3CO)ccc2S1(=O)=O	4660

(more compounds)
SMILES | Autofluor counter
C[C@@H]1CN([C@H](C)CO)S(=O)(=O)c2ccc(Br)cc2O[C@@H]1CN(C)Cc1ccc(-c2ccccc2)cc1 | 3732
CCOC1=C2[C@@H](CN(S(=O)(=O)c3ccc(C)cc3)[C@H]2c2cccc3ccccc23)[C@H]2C(=O)NC(=O)[C@H]2C1 | 5931
CC1(C)ON=C(c2cccc(F)c2)NC1=O | 5343
Cc1ccc(-c2csc(C(O)c3ccccc3)n2)cc1C (stereo unspecified) | 4153
COc1ccc(-c2cc(NC(C)=O)c3ncc(-c4ccc(OC)c(OC)c4)n3c2)cc1OC | 3430
C[C@@H]1CCCCO[C@H](CN(C)Cc2ccc(C(F)(F)F)cc2)[C@@H](C)CN([C@H](C)CO)C(=O)c2cc(NS(=O)(=O)c3cn(C)cn3)ccc2O1 | 2846
CC1C(=O)N(Cc2cn(Cc3ccco3)nn2)CCS(=O)(=O)N1Cc1ccc(-c2ccc(F)cc2)cc1 (stereo unspecified) | 2917
CNc1nc(NCC2CCCCC2)c2sccc2n1 | 3812
CCC(=O)N1CCC1(C)C(=O)NCc1ccc(SC)cc1 (stereo unspecified) | 3692
FC(F)(F)c1cc(Cl)c2nc(-c3ccc(Cl)cc3)c(Cc3ccsc3)n2c1 | 4317
COC(=O)c1ccc(CN2C(=O)C(C)ON=C2c2ncccc2C)o1 (stereo unspecified) | 5255
CCCC(=O)N1CCCC1(C)C(=O)NCc1ccc(F)cc1Cl (stereo unspecified) | 3678
COc1ccc(-c2cc(NC=O)c3ncc(-c4cccc(C(=O)N(C)C)c4)n3c2)cn1 | 3641
OC(Cc1cccc(C=NN2CCOCC2)n1)(C(F)(F)F)C(F)(F)F | 2785
O=C(O)CC1NC(=S)N(Cc2ccccc2)C1=O (stereo unspecified) | 3770
Cc1cc(C(O)c2ncc(-c3ccc(Cl)cc3)[nH]2)ccc1F (stereo unspecified) | 3544
CCOC(=O)[C@]12CCC=C1N(Cc1cccc3ccccc13)C(=O)[C@H](CC(=O)N1CCC(c3ccccc3)CC1)C2 | 6204
CC(C)CNC(=O)C1(C)CCCCCN1C(=O)c1cc(C#N)cs1 (stereo unspecified) | 4137
Cc1cccc(C)c1-n1nnnc1C1(C)CCC(=O)N1c1ccc(N2CCOCC2)cc1 (stereo unspecified) | 5729
CC1(C(=O)NCc2cccs2)Cc2c(-c3cccc(C(F)(F)F)c3)ccnc2O1 (stereo unspecified) | 4134
N#Cc1cc2cc3c(cc2nc1Cl)OCCO3 | 3505
CCN(CC)C(=O)C1=C(C)N(CCC2=CCCCC2)C(=O)C(CC(=O)NCC2CCCCC2)C1 (stereo unspecified) | 3518
C[C@@H]1O[C@H](C2CC2)Cc2[nH]c(=S)[nH]c(=O)c21 | 5300
Cc1cc2c3ccccc3[nH]c(=O)n2n1 | 3403
O=C(NC(c1ccc(-c2ccccc2)cc1)c1cnccn1)C1CCN(CCOc2ccc(F)cc2)CC1 (stereo unspecified) | 4449
C[C@H](NC(=O)C1CCN(C(=O)[C@@H]2CCCN2C(=O)OC(C)(C)C)CC1)C(=O)NCc1ccc(F)cc1 | 5563
COc1ccc(CN2CCC[C@]3(N[C@H](c4ccc(C(F)(F)F)cc4)[C@@H]4C(=O)N(C)C(=O)[C@@H]43)C2=O)cc1 | 3681
CCCN(C(=O)CSCc1ccc(C)cc1)c1c(N)n(Cc2ccccc2)c(=O)[nH]c1=O | 2835
Cc1cc(C)c(C(=O)Nc2ccc3c(c2)OCCO3)c(C)c1 | 3009
COCCNC(=O)C1(C)CCCN(C(=O)c2ccc3c(c2)OCO3)C1 (stereo unspecified) | 3746
COc1cc2nc3n(c(=O)c2cc1OC)-c1ncccc1C(=O)NC3Cc1ccccc1 (stereo unspecified) | 3281
CCOc1ccc2[nH]c(=S)sc2c1 | 5910
CCC12CC1(C(=O)OC)C(=O)N1CCc3c([nH]c4ccccc34)C12 (stereo unspecified) | 5752
CN1CCN(c2ncnc3c2ncn3[C@H]2CN(Cc3cccs3)C[C@@H](CO)O2)CC1 | 3648
Cc1ccccc1-c1n[nH]nc1C1=CC(=O)C[C@H](c2ccc(F)cc2)C1 | 3536
Cc1ccc(C(=O)NCCN2CCC(n3c(=O)[nH]c4ccccc43)CC2)cc1F | 4318
Cc1cc(S(=O)(=O)Nc2ccc(C(=O)NCC3CCCO3)cc2)ccc1F (stereo unspecified) | 3771
CC(C)(C)c1ccc(CC(=O)N2CCC2(C)C(=O)NS(=O)(=O)c2ccccc2Cl)cc1 (stereo unspecified) | 3821
CCOC(=O)[C@]12CCC=C1N(Cc1cccc3ccccc13)C(=O)[C@H](CC(=O)NCCc1ccccc1OC)C2 | 6676
CCc1nc2c(OCCC3CCCCC3)cccn2c1N(C)C(=O)COc1ccccc1 | 3670

Fetched one by one from the list above (seven):
SMILES | Autofluor counter
C[C@H](NC(=O)C1CCN(C(=O)[C@@H]2CCCN2C(=O)OC(C)(C)C)CC1)C(=O)NCc1ccc(F)cc1 | 5563
CCOC(=O)[C@]12CCC=C1N(Cc1cccc3ccccc13)C(=O)[C@H](CC(=O)NCCc1ccccc1OC)C2 | 6676
CCOc1ccc2[nH]c(=S)sc2c1 | 5910
Cc1cc(S(=O)(=O)Nc2ccc(C(=O)NCC3CCCO3)cc2)ccc1F (stereo unspecified) | 3771
Cc1ccc(C(=O)NCCN2CCC(n3c(=O)[nH]c4ccccc43)CC2)cc1F | 4318
Cc1cc(C)c(C(=O)Nc2ccc3c(c2)OCCO3)c(C)c1 | 3009
O=C(NC(c1ccc(-c2ccccc2)cc1)c1cnccn1)C1CCN(CCOc2ccc(F)cc2)CC1 (stereo unspecified) | 4449

The listing continues.
SMILES | Autofluor counter
COc1ccc(S(=O)(=O)N(C)C[C@@H]2Oc3cc(Br)ccc3S(=O)(=O)N([C@H](C)CO)C[C@@H]2C)cc1 | 3799
CC1(c2cccc(N)c2)OCCO1 | 3286
COCCCN1C(=O)C(CC(=O)NCCN2CCOCC2)CC(C(=O)N(C(C)C)C(C)C)=C1C (stereo unspecified) | 5367
C[C@H]1CN([C@@H](C)CO)C(=O)CCCn2nncc2CO[C@H]1CN(C)C(=O)Oc1ccccc1 | 3648
Cc1cccc(C)c1NC(=O)CN1CCC(Cc2ccccc2)CC1 | 5892
Nc1ncnc2c1ncn2[C@@H]1O[C@H](C(=O)Nc2cc(C(F)(F)F)cc(C(F)(F)F)c2)[C@@H](O)[C@H]1O | 5726
CN(Cc1ccccc1)C(=O)Nc1c(Cl)cccc1Cl | 3902
CCc1cccc(C)c1NC(=O)COC(=O)Cc1ccccc1 | 3881
CCCCCCn1c(=O)n2n(c1=O)[C@@H]1CN(S(=O)(=O)c3ccc(C)cc3)C[C@]1(O)[C@@H](OC(=O)Nc1cccs1)C2 | 4289
C=CCNc1nc(NCCOc2ccccc2Cl)c2sc(-c3ccccc3)cc2n1 | 3662
CS(=O)(=O)Nc1cccc(NC(=O)c2cccc3c(-c4cccc(C(N)=O)c4)coc23)c1 | 3460
CCCCNC(=O)C[C@@H]1C[C@@]2(C(=O)OC)CCCCC=C2N(Cc2ccco2)C1=O | 6111
O=C1C=CC(O)C2(CO)OC12 (stereo unspecified) | 4025
COC(=O)N(C)C[C@H]1OCc2cnnn2CCCC(=O)N([C@H](C)CO)C[C@H]1C | 3360
Cc1ccccc1-c1cc2c(c3c1ccn3C)C1CCC2O1 (stereo unspecified) | 5787
CCCS(=O)(=O)NC(=O)C1(C)CCN(C(=O)/C=C/c2ccccc2)C1 (stereo unspecified) | 3728
CCc1cc(-c2nnn(CCC3COCCO3)c2C(C)(C)O)ccc1-c1cn(CCc2c[nH]c3ccccc23)nn1 (stereo unspecified) | 3660
COc1ccc2[nH]c3c(c2c1)CNCC3 | 4198
CC1(C(=O)Nc2cnc3ccccc3c2)CCN1CCOc1ccccc1 (stereo unspecified) | 3779
CC(=O)Nc1cnc(-c2ccccc2C(C)=O)cn1 | 3453
COC(=O)CCCCC1=CCC2C(=O)C=C(O)C2C1 (stereo unspecified) | 6012
CC1=C(C(=O)N2CCOCC2)CC(CC(=O)NC(c2ccccc2)c2ccccc2)C(=O)N1CCCN1CCCC1=O (stereo unspecified) | 3474
COc1cccc(C(C)(O)c2nc(-c3ccccc3C)cs2)c1 (stereo unspecified) | 3700
CC1(C(=O)NS(=O)(=O)c2cccc(OC(F)F)c2)CCN1C(=O)CC1CCCC1 (stereo unspecified) | 3811
Cc1cccc(S(=O)(=O)N(C)C[C@H]2OCc3cnnn3CCCC(=O)N([C@H](C)CO)C[C@@H]2C)c1 | 3429
c1cc(C2OCCO2)cs1 | 3203
C[C@@H]1CN([C@H](C)CO)C(=O)CCCn2cc(nn2)CO[C@H]1CN(C)S(=O)(=O)c1ccc(Oc2ccccc2)cc1 | 3747
CCOC(=O)C1(C)CCCN(C(=O)c2cccnc2)C1 (stereo unspecified) | 4176
OC(c1ccc2c(c1)OCO2)c1ncc(-c2cccc(C(F)(F)F)c2)[nH]1 (stereo unspecified) | 2907
O=C1Cc2cc(S(=O)(=O)N3CCN(c4ccc(C(=O)O)cc4)CC3)ccc2N1 | 3546
CCCCC[C@H](C)N1C[C@H](COCc2ccccc2)Oc2cc(N3CCC[C@H]3CO)ccc2S1(=O)=O | 5076
C[C@H]1CN([C@@H](C)CO)C(=O)CCCn2cc(nn2)CO[C@@H]1CN(C)S(=O)(=O)c1ccc(Oc2ccccc2)nc1 | 3672
CCC1NC(=O)c2cccnc2-n2c1nc1ccc(C)cc1c2=O (stereo unspecified) | 4074
CCCN1CCN(C(=O)c2ccc(S(=O)(=O)N(C)c3ccccc3OC)cc2)CC1 | 3700
Cc1ccccc1Oc1ccc2c(c1)[C@@H]1C[C@H](N(C)C(=O)c3ccco3)[C@H]([C@H](C)O)C(=O)N1CC2 | 3970
CCCCc1c(-c2cccc(OC)c2)ncn1CCc1ccccc1OC | 6011
